HSV replic up: increases HSV replication in cells; HSV replication augmentation in cells, fold increase; maximum fold increase; actives 0.005% (n = 220,000); AID 1956;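 active means peak rise of 1.5-fold or more in the series; tested in PC3 cells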;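 further: first round at 10 µM; read as green reporter fluorescence; hits show the peak of a series up to 25 µM; 1 = signal of infected wells without compound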
HSV replic up primary fold: further read-out of HSV replic up, marked with its call; fold increase; compound at 10 µM; measured here: primary screen fold increase 10 uM; tested in PC3 cells;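 GFP signal in the first replicate; 1 = infected wells without compound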
The depositor's hits bear a star; i = inactive; & = joins results of further samples. An excerpt; the hit share may differ from the screen's.

SMILES	HSV replic up	HSV replic up primary fold
OCC[C@@H]1C[C@H](O)[C@@H](O)[C@@]2(CCCCO2)O1	i	0.84
O=C1C=C(N2CCOCC2)CCC1	i	0.75
CCc1ccccc1N(C(=O)CCC(=O)Nc1cc(C)on1)C(C(=O)NC1CCCC1)c1ccco1 (stereo not drawn)	i	0.97
COC/C=C/C1=CC2=CC(=O)C(C)(OC(=O)c3cnc4ccccc4n3)C(=O)C2=CN1CC1CC1 (stereo not drawn)	i	1.1
COc1ccc(-c2nc(-c3ccc(C(=O)O)cc3)no2)cc1	i	0.92
C[C@@H](C(=O)Nc1ccc2ccccc2c1)[C@@H]1C[C@@]1(C)[C@@H](N)c1ccccc1	i	0.82
O=[n+]1cc(-c2cc3ccccc3o2)n([O-])c2c1CCCC2	i	0.95
CC(Nc1nc(-c2ccc(Cl)cc2)cs1)c1nc2cc(Cl)c(N3CCCCC3)cc2n1CCOCCO (stereo not drawn)	i	0.82
Cc1ccc(S(=O)(=O)N2CCN(C(=O)CCC(=O)N3CCc4ccccc43)CC2)cc1	i	0.9
COc1ccc(-c2oc3ccc(-c4ccc(OC)nc4)cc3c2-c2ccc(OC)cc2)cc1	i	0.96
CCCOC(=O)C1NC(=O)N2C(C(=O)OCCC)C(C)(C)S[C@H]12 (stereo partly drawn)	i	1.2
COC(=O)N1[C@H](C)C=C[C@]1(Cc1ccccc1)C(=O)OC	i	0.79
COc1ccc(-c2noc3c2-c2nc(-c4ccccc4Cl)sc2CC3)cc1	i	0.95
COCOc1ccc(C2CC(=O)c3c(OCOC)cc(OCOC)cc3O2)cc1 (stereo not drawn)	i	0.7
O=C(NCc1cccc(Br)c1)c1cc(-c2ccccc2)nn1CC1CC(c2cccc([N+](=O)[O-])c2)=NO1 (stereo not drawn)	i	0.96

Among those listed so far, these contain nitrogen in an aromatic ring.
SMILES	HSV replic up	HSV replic up primary fold
CCc1ccccc1N(C(=O)CCC(=O)Nc1cc(C)on1)C(C(=O)NC1CCCC1)c1ccco1 (stereo not drawn)	i	0.97
COC/C=C/C1=CC2=CC(=O)C(C)(OC(=O)c3cnc4ccccc4n3)C(=O)C2=CN1CC1CC1 (stereo not drawn)	i	1.1
COc1ccc(-c2nc(-c3ccc(C(=O)O)cc3)no2)cc1	i	0.92
O=[n+]1cc(-c2cc3ccccc3o2)n([O-])c2c1CCCC2	i	0.95
CC(Nc1nc(-c2ccc(Cl)cc2)cs1)c1nc2cc(Cl)c(N3CCCCC3)cc2n1CCOCCO (stereo not drawn)	i	0.82
COc1ccc(-c2oc3ccc(-c4ccc(OC)nc4)cc3c2-c2ccc(OC)cc2)cc1	i	0.96
COc1ccc(-c2noc3c2-c2nc(-c4ccccc4Cl)sc2CC3)cc1	i	0.95
O=C(NCc1cccc(Br)c1)c1cc(-c2ccccc2)nn1CC1CC(c2cccc([N+](=O)[O-])c2)=NO1 (stereo not drawn)	i	0.96

More compounds
SMILES	HSV replic up	HSV replic up primary fold
COc1ccc(CCN(C)CCc2ccc(OC)c(OC)c2)cc1OC	i	0.94
COC(=O)C1=C(C(=O)OC)[C@@H]2N(C)c3ccccc3[C@@]23C[C@@H](CO)N(C(=O)C2CCC2)C3=N1	i	0.84
N#CCCn1nc(Cc2cccc3ccccc23)c(C#N)c1N	i	0.94
COc1ccc(CNC(=O)C2(CC3CC(c4ccccc4)=NO3)CCN(C(=O)C3(C)CC3)CC2)cc1 (stereo not drawn)	i	0.86
O=C(O)C1=C[C@H](c2ccccc2)C[C@H](OCCCCO)O1	i	0.85
COc1cc(C2=CCN(C(C)=O)CC2)ccc1OC(C)=O	i	0.87
COC(=O)C1=C[C@@H](C(=O)OC)[C@@H]2C3=C(C(=O)[C@@]2(C)NC(=O)c2ccccc2)[C@H](C)n2c(=O)n(C)c(=O)n2[C@@H]3C1	i	0.94
CCOC(=O)C[C@H]1c2cc(F)ccc2S(=O)(=O)N1C(C)C	i	0.78
C[C@]12C=CC(=O)C=C1CC[C@@H]1C2=CC[C@]2(C)[C@@H](C(=O)CN3CCN(c4cc(N5CCCC5)nc(N5CCCC5)n4)CC3)CC[C@@H]12	i	0.97
COc1cc2c(cc1OC)CN(Cc1cc(=O)n3cc(C)ccc3n1)CC2	i	1.1
CCOC(=O)c1cc(-c2ccccc2)nn1CC1CC(c2ccc(Cl)cc2)=NO1 (stereo not drawn)	i	1
CCCCCCCCCCCCN1[C@@H](CC(=O)OC)c2cc(F)ccc2S1(=O)=O	i	1.3
OC1(C#Cc2c(-c3ccsc3)oc3ccc(N4CCOCC4)cc23)CCCCC1	i	0.93
COC(C/C=C/[C@@H](O)[C@H](C)OCc1ccccc1)OC	i	0.81
COc1ccc(N/C(=C2\CCCC2=O)C2CCCCC2)cc1	i	1.1

Entries above that contain a furan ring, fused or not (4):
SMILES	HSV replic up	HSV replic up primary fold
CCc1ccccc1N(C(=O)CCC(=O)Nc1cc(C)on1)C(C(=O)NC1CCCC1)c1ccco1 (stereo not drawn)	i	0.97
O=[n+]1cc(-c2cc3ccccc3o2)n([O-])c2c1CCCC2	i	0.95
COc1ccc(-c2oc3ccc(-c4ccc(OC)nc4)cc3c2-c2ccc(OC)cc2)cc1	i	0.96
OC1(C#Cc2c(-c3ccsc3)oc3ccc(N4CCOCC4)cc23)CCCCC1	i	0.93

(cont.)
SMILES	HSV replic up	HSV replic up primary fold
CC(=O)Cc1nsc(NC(=O)c2ccc(-c3ccc(Cl)c(C(F)(F)F)c3)o2)n1	i	0.96
Cc1nccn1CC(=O)O	i	0.9
N#CCc1c(C#N)c(N)nc(N2CCOCC2)c1C#N	i	1.1
CC(C)(C)OC(=O)N1CCC2(CC1)Oc1ccc(F)cc1C(=O)C21CC(c2ccc(Cl)cc2)=NO1 (stereo not drawn)	i	0.89
OCC[C@@H]1C[C@@H](O)[C@H](O)[C@@]2(CCCO2)O1	i	1.2
COc1ccc(CNS(=O)(=O)c2ccc(C)cc2)cc1	i	0.8
Cn1c(NCc2ccccc2Cl)nc2ccccc21	i	0.76
Cc1c(CCCC(=O)O)sc(N)c1C(=O)c1cccc(C(F)(F)F)c1	i	0.9
O=C(NCc1ccco1)C1CC(c2ccc(C(F)(F)F)cc2)=NO1 (stereo not drawn)	i	1
COc1ccc([C@H]2/C=C\CN(C(=O)[C@H](Cc3ccccc3)NC(=O)OCC3c4ccccc4-c4ccccc43)CC(=O)N2Cc2ccc(F)cc2)cc1	i	0.69
Cc1cc2oc3ccc(NCCC4CCCN4C)cc3c(=O)c2cc1C (stereo not drawn)	i	0.83
CCOC(=O)C1=C(C)N(CCCC(=O)O)C(=O)NC1c1cc2ccccc2c2ccccc12 (stereo not drawn)	i	0.93
CCOC(=O)C1=C(C)N(CCCC(=O)O)C(=O)NC1c1ccc(Br)cc1 (stereo not drawn)	i	0.88
O=C(NCc1ccccc1)C1=C[C@H](c2ccc(Br)cc2)C[C@H](OCCCCO)O1	i	0.74
O=C(NCC1CCCO1)c1ccc2c(c1)S(=O)(=O)c1ccccc1C2=O (stereo not drawn)	i	0.83
CCOC(=O)N1CCN(c2nc(SC)nc3sc4c(c23)CC(C)(C)OC4)CC1	i	0.82
CCOC(=O)c1ccc(NS(=O)(=O)c2c(N)[nH]c(=O)[nH]c2=O)cc1	i	0.78
Oc1ccc(O)cc1	i	0.82
CC(C)(C)OC(=O)NCCCCC1=CC2=CC(=O)C(C)(OC(=O)c3cnc4ccccc4n3)C(=O)C2=CO1 (stereo not drawn)	i	1.1
O=C(NCCc1nc(-c2ccccc2)no1)c1ccco1	i	1.2
Brc1ccc([C@H]2CN3CCSC3=N2)cc1	i	0.79
COC(C[C@H]1O[C@@H]1C(=O)[C@H](C)OCc1ccccc1)OC	i	0.85
NCCS(=O)(=O)O	i	0.78
O=C(c1cc(-c2ccccc2)nn1CC1CC(c2cccnc2)=NO1)N1CCOCC1 (stereo not drawn)	i	1
OCCCn1c(C2CCCN2c2nc(-c3ccc(F)cc3)cs2)nc2cc(Cl)c(N3CCCCC3)cc21 (stereo not drawn)	i	0.86
CCOc1ccccc1Nc1nc(N2CCCC2)nc(N2CCOCC2)n1	i	0.76
C=CCOC(=O)C1=C[C@H](C(C)(C)C)[C@@H](CCCO)[C@H](OCC)O1	i	0.91
C[C@H]1CCC[C@@]2(O[C@H](CCO)C[C@H](O)[C@H]2O)O1	i	0.85
C/C=C1\COC(C(=O)NCc2ccccc2)(C(F)(F)F)C=C1C=C(C)C (stereo not drawn)	i	1
COc1ccccc1OCC(O)CN1CCN(CC(=O)Nc2c(C)cccc2C)CC1 (stereo not drawn)	i	0.77
O=C(Nc1ccccc1)[C@@H]1CC=C[C@@H]2CCN(C3CCCCC3)C(=O)[C@@H]21	i	0.83
O=C(Nc1ccc(Cl)c(C(F)(F)F)c1)[C@@H]1CC=C[C@@H]2CCN(C3CCCCC3)C(=O)[C@@H]21	i	1.1
COc1ccc(CN2CC[C@H]3C=CC[C@@H](C(=O)NCCc4ccccc4)[C@H]3C2=O)cc1OC	i	0.85
Cc1ccc(O)c(N=Nc2ccccc2)n1	i	0.87
Cc1ccc(-n2ncc3c(NCCCn4ccnc4)ncnc32)c(C)c1	i	0.97
CN/C(=C\[N+](=O)[O-])NCCSCc1csc(CN(C)C)n1	i	0.99
C=CCNC(=O)N1C2=NC(C(=O)OC)=C(C(=O)OC)[C@@H]3N(Cc4ccccc4)c4ccccc4[C@]23C[C@H]1C(=O)OC	i	0.83
Cn1c(=O)c2c(nc(CN3CCC(C(N)=O)CC3)n2Cc2ccccc2Cl)n(C)c1=O	i	0.84
O=C(NCc1ccccc1)C1=C[C@H](C2CCCCC2)C[C@H](OCCCCO)O1	i	0.84
COc1c(N2CCNC(C)C2)c(F)cc2c(=O)c(C(=O)O)cn(C3CC3)c12 (stereo not drawn)	i	1
CCOC(=O)CN1C(=O)N[C@@H](CCc2ccccc2)[C@H](C(C)=O)[C@H]1C	i	0.86
COc1ccccc1-c1nc(-c2ccc(C(=O)O)cc2)no1	i	0.85
C=CCN1C=C2C(=O)C(C)(OC(=O)c3ccco3)C(=O)C(C=C)=C2C=C1C1CC1 (stereo not drawn)	i	0.85
O=C(O)C(c1ccccc1)c1ccccc1	i	0.75
COC(=O)[C@H]1[C@@H](C)N(Cc2ccccc2)C(=O)N[C@H]1c1cccc(C(F)(F)F)c1	i	0.69

Sorted by the number under HSV replic up primary fold (low to high): three from the list above.
SMILES	HSV replic up	HSV replic up primary fold
O=C(NCC1CCCO1)c1ccc2c(c1)S(=O)(=O)c1ccccc1C2=O (stereo not drawn)	i	0.83
Cn1c(=O)c2c(nc(CN3CCC(C(N)=O)CC3)n2Cc2ccccc2Cl)n(C)c1=O	i	0.84
C[C@H]1CCC[C@@]2(O[C@H](CCO)C[C@H](O)[C@H]2O)O1	i	0.85

(next part)
SMILES	HSV replic up	HSV replic up primary fold
CS(=O)(=O)c1ccc(C2=C(c3ccccc3)C(=O)OC2)cc1	i	0.85
COC(=O)[C@@H]1[C@H]2C[C@H]3c4[nH]c5ccccc5c4CCN3C[C@@H]2CC[C@@H]1O	i	1.1
COCOc1ccc(-c2oc3c(C/C=C(\C)CCC=C(C)C)ccc(O)c3c(=O)c2OCOC)c(OCOC)c1	i	0.79
COc1ccc([C@H]2/C=C\CN(C(=O)c3ccc(C)cc3)[C@@H](C)C(=O)N2Cc2ccc(F)cc2)cc1	i	0.86
O=C(NCc1ccccc1)C1=C[C@@H](c2ccc(C(F)(F)F)cc2)C[C@@H](OCCCCO)O1	i	0.87
COC(=O)C1=C[C@@H](C(=O)OC)C2C3=C(C(=O)C24CCCCC4)[C@H](C)n2c(=O)n(-c4ccccc4)c(=O)n2[C@@H]3C1 (stereo partly drawn)	i	0.97
CCCCC1=CC2=C(c3ccco3)C(=O)C(C)(OC(=O)c3ccc(OC)cc3)C(=O)C2=CN1C1CCCC1 (stereo not drawn)	i	1.1
C[C@H]1CC[C@@]2(O[C@@H](CCO)C[C@H](O)[C@H]2O)O1	i	0.72
C=C1CCN([C@@H](Cc2ccccc2)C(=O)N2CCOCC2)S(=O)(=O)c2ccccc21	i	0.89
CCCN[C@H]1CCc2nc(N)sc2C1	i	0.9&1.1
CCC1(CC)C(=O)C2=C3C1[C@H](C(=O)OC)C=C(C(=O)OC)C[C@H]3[C@H]1C(=O)N(Cc3ccccc3)C(=O)[C@H]1[C@H]2C (stereo partly drawn)	i	0.96
c1ccc2c(c1)[nH]c1ccccc12	i	0.96
COCOc1ccc(C=O)c(OCOC)c1	i	1

Rewritten with each value named: 2 of the compounds above.
Compound: COc1ccc([C@H]2/C=C\CN(C(=O)c3ccc(C)cc3)[C@@H](C)C(=O)N2Cc2ccc(F)cc2)cc1
  HSV replic up: i
  HSV replic up primary fold: 0.86
Compound: CCC1(CC)C(=O)C2=C3C1[C@H](C(=O)OC)C=C(C(=O)OC)C[C@H]3[C@H]1C(=O)N(Cc3ccccc3)C(=O)[C@H]1[C@H]2C (stereo partly drawn)
  HSV replic up: i
  HSV replic up primary fold: 0.96
